# From PubChem
# Bead autofluor – flagged as autofluorescent in microsphere protease counterscreen; AID 624483; fluorescence intensity (test concentration not listed); compound autofluorescence counterscreen, microsphere flow cytometry; stronger effect = higher value; 3.1% of 360,000 active;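 active = at least 3 SD above the mean of all compounds, about 16000 in these data; inconclusive = too few beads counted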;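 also: 100 nL of 1 mM stock went into each well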
# Sa ugtP lethal – compounds lethal to S. aureus RN4220 ugtP deletion mutant; OD600 growth, 16 h; some inactives read as strong as hits; growth inhibition, % (test concentration not listed); 0.54% of 330,000 active; AID 1259309;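 active = z-score under -3 and OD600 up to 0.15 on both plates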;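 also: plate controls were untreated wells for no effect and antibiotic for full effect; wells of about 80 µL received 100 nL stock; the first replicate is given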
# Mtb hypoxia inh – reduces hypoxia-regulated biosensor signal in M. tuberculosis; M. tuberculosis hypoxia-regulated fluorescent reporter, fluorescence; fluorescence inhibition, % (concentration not given with the values); 0.1% of 300,000 active;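 active = 35 to 45% if threefold the growth effect, above 45% if 1.5-fold the growth effect; inactive = the rest, general growth blockers included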;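 also: wells of about 50 µL received 100 nL stock; 0% = vehicle wells and 100% = reference inhibitor wells; whole bacteria with a GFP reporter of the hypoxia response; strong numbers were not always called active; many hits fall short of the cut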
# RN4220 kill – S. aureus RN4220 growth inhibition | inhibition, % (test concentration not listed) | 0.33% of 330,000 active | OD600, 16 h | AID 1259311;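 active = z-score of -3 or lower and OD600 up to 0.18 on both plates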;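 also: plate controls were untreated cells for no effect and reference antibiotic for full effect; stock transfer was 100 nL into about 80 µL; one replicate is shown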
# PrP 5UTR inh – suppresses PrP 5' UTR mRNA reporter expression; cell-based PrP 5' UTR mRNA reporter, plate reader; inhibition, % (test concentration not listed); 0.35% of 340,000 active;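 active = every replicate at 50% or more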;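 also: 0 = median of the neutral control wells; tested in H4 reporter cells; numbers are from one replicate; inactives centre near -14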
# BJeLR viability – BJeLR cell viability loss; BJeLR (HRASV12) viability, CellTiter-Glo ATP luminescence, 48 h; reference of the scale not given here; inhibition, % (test concentration not listed); 0.17% of 300,000 active; AID 1554;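 active = replicate mean above 50%; inconclusive = above 50% but judged a plate artefact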;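 also: 50 nL library stock added to about 25 µL; numbers are from one replicate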
# Mtb hypoxia inh growth – recorded beside Mtb hypoxia inh, whose call it bears; growth inhibition, %; measured here: M. tuberculosis growth (absorbance);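 0% = vehicle and 100% = reference antibiotic; read after six days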
# The depositor's hits bear a star; ? = inconclusive; . = no result given.
Structure	BJeLR viability	Bead autofluor	PrP 5UTR inh	Sa ugtP lethal	RN4220 kill	Mtb hypoxia inh	Mtb hypoxia inh growth
O=C(NCc1cccnc1)c1nc(-c2ccc(C(F)(F)F)cc2)no1	5	2460	-24	43	-4.4	13	7
COC(=O)c1c(C(=O)OC)c(-c2cccc(C)c2)n2c1CS(=O)C2 (configuration not stated)	0	4313	-7	2	3.9	0	1
COc1ccc(N(CC(=O)Nc2ccccc2C(=O)NCCc2ccccc2)S(C)(=O)=O)cc1OC	-3	21907*	-10	0	3.8	-10	5
CSc1nc(N(C)C)c2ccccc2n1	0	4930	-30	3	2.1	.	.
COc1cccc(C2CCCN2Cc2nc(CC3CC3)no2)c1 (configuration not stated)	-1	5694	-1	3	2.3	9	1
O=C(OCC(=O)N1CCCC1=O)c1cccc(S(=O)(=O)N2CCOCC2)c1	7	?	-4	7	3.8	5	-5
CS(=O)(=O)N(CC(=O)N1CCN(c2cccc(Cl)c2)CC1)C1CCCCC1	-7	4848	-15	2	2.6	.	.
Cc1ccc(C(=O)NNC(=S)NCC2CCCO2)cc1[N+](=O)[O-] (configuration not stated)	0	5217	-12	4	1.9	5	4
CN1C(=O)[C@@H]2C[C@@]3([C@@]45C[C@H]6C(=O)N(C)[C@@H](Cc7ccccc7)C(=O)N6[C@@H]4Nc4ccccc45)c4ccccc4N[C@H]3N2C(=O)[C@@H]1Cc1ccccc1	5	4034	-14	.	.	.	.
COCCOC(=O)C1=C(C)NC(=S)NC1c1ccc(OCC(=O)N2CC(C)OC(C)C2)c(OC)c1 (configuration not stated)	.	3261	-4	1	1.6	16	39
FC(F)(F)c1ccc2c(c1)nnn2C1CCN(Cc2nnnn2Cc2ccccc2)CC1	2	9752	4	-10	-1.8	3	14
Cc1cccc(C)c1OCC(=O)Nc1cc(Cl)ccc1-n1cncn1	3	4739	-11	6	14	7	-6
Cc1cc(-c2nnc(CCC(=O)NC(C)c3ccc(F)cc3)o2)no1 (configuration not stated)	0	2426	-7	7	0.9	8	0
CC1(c2nnc(-c3cccc(Cl)c3)o2)CC(c2ccccc2Br)=NO1 (configuration not stated)	0	3435	-16	13	20	3	7
NNC(=O)c1sc2nc(N3CCOCC3)c3c(c2c1N)CCCC3	-5	4579	.	4	6.4	6	12
O=C(NN=Cc1ccccc1)c1ccco1	.	.	.	2	2.9	-9	-1
CC(=O)N1CCN(S(=O)(=O)c2ccc3c(c2)CC(=O)N3)CC1	.	7964	-14	2	4.3	2	-2
CCC(CC(=O)C(F)(F)F)=NNC(=O)/C(C#N)=C/N(C)C	.	.	.	7	2.2	14	15
COc1cccc(C(=O)N/N=C(/CCC(=O)O)c2ccccc2)c1	-2	2507	-15	.	.	.	.
O=[N+]([O-])c1ccc(NCCCN2CCOCC2)c([N+](=O)[O-])c1	2	4941	-18	7	5.2	2	-3
Cc1ccc(C(=O)N2CCC(C(N)=O)CC2)cc1C	5	10029	-10	2	-0.9	6	7
CC(NC(=O)c1ccccc1O)c1ccccc1 (configuration not stated)	-4	12535	-25	-8	7.2	1	6
O=C(c1cccn2c(=O)c3cc(Cl)ccc3nc12)N1CCOCC1	-12	23073*	-11	12	5.9	9	4
O=C(COC(=O)CCc1c[nH]c2ccccc12)NCc1ccc(Cl)cc1	6	9594	-12	-1	6.5	4	9
Cc1cc(NC(=O)CSCC(=O)NC(C)c2ccccc2)no1 (configuration not stated)	.	5022	-16	6	5.9	2	-2
CN(C)c1ccc(CN(C(=O)COc2ccc(F)cc2)C2CCS(=O)(=O)C2)cc1 (configuration not stated)	15	20985*	-2	2	6.4	13	5
CCc1ccccc1NC(=O)CN(C)S(=O)(=O)c1ccc(-c2ccc(=O)[nH]n2)s1	5	5076	-2	5	4.1	-1	-6
CCN(CC)CCNC(=O)Cn1ncc2ccccc2c1=O	-5	.	6	11	2.8	1	-1
CC(C)C(NC(=O)OCc1ccccc1)C(=O)NC(Cc1c[nH]c2ccccc12)C(=O)O (configuration not stated)	.	5488	.	3	5.5	6	8
O=C(O)/C=C/c1cccc2c1OCCO2	2	4816	12	8	1.4	9	-2

# In another format: entries from further up
O=C(NN=Cc1ccccc1)c1ccco1
  BJeLR viability: .
  Bead autofluor: .
  PrP 5UTR inh: .
  Sa ugtP lethal: 2
  RN4220 kill: 2.9
  Mtb hypoxia inh: -9
  Mtb hypoxia inh growth: -1
CC(=O)N1CCN(S(=O)(=O)c2ccc3c(c2)CC(=O)N3)CC1
  BJeLR viability: .
  Bead autofluor: 7964
  PrP 5UTR inh: -14
  Sa ugtP lethal: 2
  RN4220 kill: 4.3
  Mtb hypoxia inh: 2
  Mtb hypoxia inh growth: -2

# (listing goes on)
Structure	BJeLR viability	Bead autofluor	PrP 5UTR inh	Sa ugtP lethal	RN4220 kill	Mtb hypoxia inh	Mtb hypoxia inh growth
O=C(O)c1ccc(COc2ccc(/C=N/NC(=O)c3cccs3)cc2)cc1	-1	8526	-20	.	.	.	.
COc1ccc(Cl)cc1NC(=O)c1ccco1	5	2745	-7	7	2.6	.	.
Nc1c(C(=O)OCC(=O)NCc2ccccc2)[nH]c(=O)[nH]c1=O	9	4280	-11	2	3.3	4	7
O=C(c1ccc(S(=O)(=O)N2CCCCC2)cc1)N1CCN(CCN2C(=O)c3cccc4cccc(c34)C2=O)CC1	14	4147	3	1	12	2	5
CC(=O)c1ccccc1NS(C)(=O)=O	-4	2408	-8	4	6.2	3	7
C#CCNC(=O)C1=C[C@@H](c2ccc(C(F)(F)F)cc2)[C@H](CCCO)[C@@H](OCC)O1	-6	3784	-12	.	.	.	.
COc1ccccc1-c1nnc(SCC(=O)NC2CC2)n1C	.	8560	-4	2	0.9	8	3
CCCCC1=CC2=CC(=O)C(C)(OC(=O)CC)C(=O)C2=CN1C(CO)CO (configuration not stated)	-1	3725	-9	5	6.3	20	10
Cc1cc(=O)oc2cc(OCC(=O)NC3CC(C)(C)NC(C)(C)C3)c(Cl)cc12	3	4662	-4	9	2.0	-3	-8
CCOC(=O)C(=O)N1CCC(C(=O)OC)CC1	-8	4468	-13	-1	1.7	2	-2
Cn1ncc2c(=O)[nH]cnc21	7	2545	-17	-6	-5.4	-7	18
CC(C(=O)N1CCN(c2ccccc2)CC1)N1C(=O)C2CC=CCC2C1=O (configuration not stated)	-2	11002	-18	6	4.4	9	0
Cc1nn(Cc2ccccc2Cl)c2sc(C(=O)NC(C)(C)C)cc12	1	3118	4	-2	-2.8	5	8
COc1ccc(NS(=O)(=O)c2cccc(C(=O)NN=Cc3ccccn3)c2)cc1	.	.	.	0	-2.6	-4	-4
NC(=O)c1ccc(NC(=O)CSc2cn(CC(=O)N3CCOCC3)c3ccccc23)cc1	10	5375	-6	5	1.3	-2	4
Cc1ccc2oc(=O)c(/C=C(\O)c3ccco3)nc2c1	4	3617	-13	.	.	.	.
CCCCc1ccc(NC(=S)N2CCCC2)cc1	.	6687	-31	0	1.2	10	0
COc1ccc2cc(CCNC(=O)C(C)(C)C)c(=O)[nH]c2c1	6	6076	-20	7	2.8	11	8
CCC1CCCCN1C(=O)COc1ccc(N(C)S(=O)(=O)c2ccc(C)cc2)cc1 (configuration not stated)	-2	6222	-29	-8	0.5	1	-3
CN(C)c1cccc(N(C)C)c1CNC(=O)C(C)(C)C	-7	6405	.	0	3.4	13	15
CCCCOC(=O)Nc1nnc(CC)s1	1	6526	-43	3	0.0	3	-15
CCOc1ccc(-c2nc3c(s2)CCc2onc(-c4ccc(OC)cc4)c2-3)cc1	1	4097	-6	-5	-22	4	3
COCCCNC(=S)N(Cc1ccccc1)Cc1ccc(F)cc1	-1	4146	-18	0	0.4	-5	6
CC(C)C(=O)Nc1ccc(C(=O)NNC(=O)CCCOc2ccc(Cl)cc2Cl)cc1	9	24267*	-9	9	1.4	0	3
COc1ccccc1NC(=O)N1CCN(c2ccc3nncn3n2)CC1	-2	5842	-18	6	1.4	1	-1
Cc1ccc(N(Cc2ccccc2)C(=O)CN2C(=O)NC3(CCCC3)C2=O)cc1	-13	4035	-5	-4	3.0	5	-3
COC(=O)[C@]1(Cc2ccccc2)N[C@H](CN(C)S(=O)(=O)c2ccc(C(C)(C)C)cc2)[C@@H]2C(=O)N(C)C(=O)[C@@H]21	.	3403	-12	5	2.3	-1	4
CC(=O)c1c(C(C)=O)c(C)n(Cc2ccc3c(c2)OCO3)c1C	5	22217*	-18	-2	2.7	8	12
CC(=NNC(=O)c1ccco1)c1cc2ccccc2o1	.	.	.	-3	3.8	3	3
NC(=O)c1ccccc1NC(=O)CCCCCn1nnc2ccccc2c1=O	9	3143	12	5	5.9	4	-1

Structure	BJeLR viability	Bead autofluor	PrP 5UTR inh	Sa ugtP lethal	RN4220 kill	Mtb hypoxia inh	Mtb hypoxia inh growth
CCn1nc(C)c(C=NNC(=O)CSc2ccccn2)c1C	.	.	.	3	3.9	-8	4
CCCOc1ccccc1C(=O)N(Cc1ccc(C)o1)C1CCS(=O)(=O)C1 (configuration not stated)	-1	5532	-24	-8	6.0	3	0
O=C(Nc1ccccc1)Nc1ccc(Cl)c([N+](=O)[O-])c1	-1	2543	-22	-35	-7.5	-9	-14
CO/C(N)=C(\C#N)N=Cc1ccccc1Cl	-2	4412	-21	4	10	4	-4
CN(c1ccccc1)S(=O)(=O)c1cc(C(=O)OCC(N)=O)ccc1Cl	0	6733	-14	7	3.5	16	0
O=C(Cn1ccc(NC(=O)OCc2ccccc2)nc1=O)NCCN1CCOCC1	.	4099	-16	-3	-1.6	3	10
CCN1C(=O)NC2C1N(S(C)(=O)=O)CCN2S(C)(=O)=O (configuration not stated)	16	3350	-14	-5	-1.8	4	15
OC1(c2cccs2)CN(c2ccc(Cl)cc2)C2=[N+]1CCCS2 (configuration not stated)	6	3357	-1	-3	1.2	-10	-9
CC(C)=C1SC(N2CCN(c3cccc(C)c3)CC2)=NC1=O	-17	10316	-22	-7	6.0	9	9
CC(/C=C/c1ccccc1)=NNC(=O)CCC(=O)Nc1ccccc1C	.	.	.	-2	4.2	15	0
COc1ccc(NC(C)=O)cc1S(=O)(=O)N1CCN(C/C=C/c2ccccc2)CC1	3	5063	-14	4	0.5	-4	2
N#Cc1ccccc1OCC(=O)OCC(=O)N1CCCC1	.	4027	-23	3	3.0	4	-2
O=C(COC(=O)/C=C/c1ccc(S(=O)(=O)N2CCCCCC2)cc1)NCc1ccccc1Cl	-7	1979	-10	0	5.4	-1	6
COc1ccc(S(=O)(=O)NCC(c2ccco2)N2CCc3ccccc3C2)cc1 (configuration not stated)	-5	.	-19	6	0.5	2	5
Cc1cccc(C)c1OCc1cc(C(=O)N(Cc2nccn2C)C(C)C)no1	1	5315	-7	4	-0.7	6	4
CCOc1ccc(S(=O)(=O)NCc2ccc(F)cc2)c2cccnc12	-1	2482	-11	0	-0.4	.	.
CCOc1ccc(C(=O)NC(C(=O)NCc2ccccn2)C(C)C)cc1 (configuration not stated)	3	2711	-24	2	0.8	.	.
Cc1ccc(S(=O)(=O)N2CCOCC2)cc1C(=O)NC1=NCCS1	.	4173	-14	-4	-0.7	-1	-6
CC(C)(C)c1cc[n+](-c2nc([O-])sc2C=O)cc1	5	2537	-11	1	2.7	4	2
COCCN(C(=S)Nc1ccc(C)cc1C)C(C)c1cccs1 (configuration not stated)	10	3918	-11	11	7.6	14	11
O=C(OCC(=O)N(C1CCCCC1)C1CCCCC1)c1cnccn1	0	4202	-12	5	0.2	15	12
COc1ccccc1NC(=O)CSc1ncnc2c1oc1ccccc12	3	20328*	-15	-2	1.0	4	6
Nc1nc(NCCCN2CCOCC2)nc(Nc2ccc(Cl)cc2)c1[N+](=O)[O-]	5	6166	.	4	3.0	-2	-7
COc1cc2c(C(=O)NCc3ccc4c(c3)OCO4)cn(C)c(=O)c2cc1OC	-1	2526	-6	9	1.8	.	.
CC(=NNc1nc(N2CCCCCC2)nc(N2CCCCCC2)n1)c1ccccc1	.	.	.	-2	-2.9	-13	-6
COc1ccc(/C=N/Nc2nncn2N)cc1Br	-11	3888	-33	.	.	.	.
C/C(=N\NC(=O)Cc1c(C)[nH][nH]c1=O)c1cccc(Br)c1	5	6128	-1	.	.	.	.
CCOc1cc2[nH]c(=S)n(Cc3ccc(C(=O)NCCOC)cc3)c(=O)c2cc1OCC	-9	20102*	-17	-11	1.9	4	6
